# High-throughput results (PubChem)
# A1 inh: inhibitors of the anti-apoptotic protein A1, read as caspase activation; MEF A1-2A-BIM cells, Caspase-Glo 3/7 luminescence, 3 h; percent of clofoctol response, vehicle zero; caspase activation, % (concentration not given with the values); 330,000 tested, 0.066% active; AID 2462;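 active = over half of replicate activation scores above 10%, or exactly half above 10 with the replicate mean above 10; inconclusive = replicate mean below 10 yet half the replicates above 10; inactive = over half of replicates below 10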;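 also: wells of about 30 µL received 50 nL stock; many hits fall short of the cut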
# T cruzi repl: blocks replication of Trypanosoma cruzi. T. cruzi beta-gal in NIH3T3, luminescence, 90 h. inhibition, % (test concentration not listed). 300,000 tested, 1.4% active;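 active = mean inhibition across valid replicates above about 55%, limit read from the data; inconclusive = mean below that limit but half or more replicates reach it; inactive = mean below it, under half of replicates reach it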;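 also: signal also drops with host cell toxicity which is not excluded here; 0% = plate median of DMSO wells and 100% = zero luminescence signal; higher percent means less beta-gal luminescence so fewer parasites; stock transfer was 50 nL into about 50 µL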
# Vif A3G: inhibitors of Vif binding to APOBEC3G peptide, primary screen, biochemical, TR-FRET, GST-Vif 1-94, biotin-A3G peptide, dose response retest (AID 1117319) | TR-FRET GST-Vif / biotin-A3G peptide binding; higher % means a stronger effect; test concentration not given here; strong numbers were not always called active | one-dose inhibition, %; IC50 in µM for titrated hits | 260,000 tested, 0.57% active;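 active = above the screen mean plus three standard deviations and confirmed in dose response; inconclusive = results disagree or hit not tested in dose response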;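 also: Vif residues 1-94 fused to GST binding biotinylated APOBEC3G peptide 110-148; 0% = full assay without inhibitor and 100% = GST in place of GST-Vif; retest series ran down from 100 µM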
# rRNA inh HTS: inhibits bacterial ribosomal RNA function over humanized ribosomes | E. coli WT GFP vs humanized-ribosome RFP mutants, fluorescence, 24 h; hits give low values; DMSO median 0, no signal -100 | GFP signal change (wild-type ribosome), % (test concentration not listed) | 350,000 tested, 1.6% active;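 active = significant combined selectivity score with lowered wild-type GFP, culture density cut under 30%, mutant RFP and density less affected; inactive = any of these conditions unmet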; also: one replicate is shown; some compounds called inactive have numbers as strong as hits
# Calb FLC: affects C. albicans growth with fluconazole | C. albicans CaCi-2 (fluconazole-resistant clinical isolate) + fluconazole, Alamar Blue growth, 48 h | growth inhibition, % (no concentration beside the values) | 300,000 tested, 0.57% active | AID 1979;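 active = most replicates above 75%; inconclusive = exactly half above 75%; inactive = most below 75%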;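 also: all wells also contain fluconazole at 8 µg/ml as a sub-toxic cotreatment; 0% = median of DMSO wells and 100% = median of geldanamycin control wells; wells of about 8 µL received 7.5 nL stock; the first replicate is given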
# Beta apoptosis: beta cell apoptosis inhibition; INS-1E cytokine-induced death, ATP luminescence, 48 h; percent of positive-control rescue, neutral wells zero; protection from apoptosis, % (test concentration not listed); 300,000 tested, 0.8% active; AID 435005;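 active = all replicates at 75% or more, or half of them and the mean; inconclusive = half reach 75% but not the mean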;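 also: 0% = cytokine-treated negative control wells and 100% = positive control rescue; higher means more ATP so stronger rescue from cytokine killing; wells of about 40 µL received 100 nL stock; the first replicate is given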
# RanGTP-Impb inh: disruptors of Ran-importin-beta complex formation – biochemical, FRET, CFP-Ran, YFP-importin-beta, homogeneous, primary screen | cell-free CFP-Ran/YFP-importin-beta FRET ratio | inhibition, % (concentration not given with the values) | 300,000 tested, 1.1% active | AID 2216;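 active = most replicates above 15%; inconclusive = exactly half above 15%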;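 also: 0% = DMSO wells and 100% = Ran loaded with GDP instead of GTP; wells of about 40 µL received 100 nL stock; the first replicate is given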
# MLL AF4-AF9 inh: blocks AF4 peptide binding to human AF9. AlphaScreen, biotin-AF4 peptide binding to FLAG-AF9. inhibition, % at 10 µM. 350,000 tested, 0.47% active. AID 651704;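 active = every replicate reaching a set inhibition limit, whatever the replicate mean, cut at about 25% in these data; inconclusive = mean inhibition reaches that limit but some replicates miss it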;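 also: 0% = plate neutral control median and 100% = total signal loss; the record names both 10 and 1 µM as test concentration; the first replicate is given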
# Target sequence (P42568 whole entry, looked up): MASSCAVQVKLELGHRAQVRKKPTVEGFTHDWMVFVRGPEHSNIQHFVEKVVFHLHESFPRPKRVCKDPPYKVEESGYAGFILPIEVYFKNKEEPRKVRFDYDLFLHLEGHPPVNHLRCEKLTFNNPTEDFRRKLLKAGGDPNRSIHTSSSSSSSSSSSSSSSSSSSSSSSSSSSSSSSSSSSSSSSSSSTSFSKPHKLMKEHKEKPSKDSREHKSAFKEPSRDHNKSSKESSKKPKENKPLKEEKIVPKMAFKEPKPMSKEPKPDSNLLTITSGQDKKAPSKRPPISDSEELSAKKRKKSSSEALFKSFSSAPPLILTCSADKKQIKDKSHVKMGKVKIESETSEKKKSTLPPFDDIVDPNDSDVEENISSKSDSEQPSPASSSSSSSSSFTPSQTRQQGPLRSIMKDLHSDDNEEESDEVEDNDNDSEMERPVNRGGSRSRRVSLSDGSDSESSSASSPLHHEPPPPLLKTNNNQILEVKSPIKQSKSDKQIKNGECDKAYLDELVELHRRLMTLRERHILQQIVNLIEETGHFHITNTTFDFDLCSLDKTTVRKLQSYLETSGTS
# rRNA inh HTS OD600: recorded beside rRNA inh HTS, whose call it bears; OD600 change, %; measured here: OD600 growth;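 optical density of the mix in the first replicate; 0 = DMSO median and -100 = no signal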
# rRNA inh HTS RFP: second read-out of rRNA inh HTS, no call of its own (marks repeat the call); RFP signal change, %; measured here: RFP humanized mutant strains;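 first replicate; 0 = DMSO median and -100 = no signal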
# Active calls of the source: *; ? = inconclusive; nt = no result given; & = joins results of further samples. These rows are one share of the data (hit frequency here may not be typical).
SMILES,A1 inh,T cruzi repl,Vif A3G,rRNA inh HTS,rRNA inh HTS OD600,rRNA inh HTS RFP,Calb FLC,Beta apoptosis,RanGTP-Impb inh,MLL AF4-AF9 inh
CCc1nnc(NC(=O)[C@@H]2CCCN2S(=O)(=O)c2ccc3c(c2)OCCO3)s1,-0.1,-11,1%,nt,nt,nt,32,-2,1.9,nt
O=C(NCCCN1CCCC1=O)c1cc(COc2ccc(F)cc2F)on1,-0.2,-9,0%,2,3,5.3,1,1,0.7,-3.7
CC1=NN(c2ccccc2)C(=O)/C1=C\c1cn(-c2ccccc2)nc1C,0.0,-3,-10%,19,19,-3.0,4,-15,-0.4,2.2
CNC(=O)C(=O)Nc1cc2c3c(c1)CCC(=O)N3CCC2,0.2,-4,nt,4,10,-0.2,-10,-2,-1.4,-0.6
CCN(CC)CCCNc1nnc(C)c(=O)[nH]1,0.5,-1,?,nt,nt,nt,3,-5,3.6,nt
Cc1ccccc1CSCCNC(=S)Nc1ccccc1,0.8,-11,3%,-13,-15,-0.4,-13,6,-1.2,3.8
CN(C)CCNC(=O)c1cc2c(s1)-c1ccc(Cl)cc1SC2,0.6,40,nt,-59,-80,-16,4,-9,-4.3,?
CCN1CCN(S(=O)(=O)c2ccc(Cl)c(C(=O)NC(C)c3ccccc3Cl)c2)CC1 (stereo unspecified),0.5,-7,10%,-1,8,-0.8,-8,-3,4.1,2.2
COc1ccc(C(CNC(=O)C2CCN(S(=O)(=O)c3ccc(F)cc3)CC2)N(C)C)cc1 (stereo unspecified),-0.3,5,-4%,11,11,1.4,-6,-8,?,-0.4
CC(C)Oc1cccc(C(=O)C2CCCN(Cc3ccc4nonc4c3)C2)c1 (stereo unspecified),0.7,51,0%,-29*,17*,9.3*,-3,1,1.9,0.8
Cn1nc(C(F)(F)F)c(-c2ccc(F)cc2)c1NC(=O)Nc1ccc(F)cc1,0.4,26,6%,-30*,-18*,-4.3*,-6,13,-1.1,-1.9
O=c1c2ccc([N+](=O)[O-])c3cccc(c32)c2nc3ccccc3n12,0.5,-18,4%,nt,nt,nt,13,1,-0.5,nt
O=C1C2C(c3cccc(/C=C/c4ccccc4)c3)CC=CC2C(c2ccc3ccccc3c2)N1Cc1ccccc1 (stereo unspecified),0.4,9,-3%,0,11,-2.0,-1,2,1.2,nt
CCN(CC(=O)Nc1c(F)cccc1F)C(=O)CSc1nc2ccccc2o1,0.5,12,-6%,11,4,0.3,5,2,-2.6,-1.7
Fc1ccc(NCc2nnc(SCc3nnc(-c4ccccc4)o3)n2CC2CCCO2)cc1 (stereo unspecified),0.7,15,3%,nt,nt,nt,6,-3,1.4,nt
Cc1cccc(NS(=O)(=O)c2ccc(C(=O)N3CCN(c4ccccc4O)CC3)cc2)c1C,-0.2,20,0%,-12,-9,1.2,67,6,4.8,-2.0
Cc1cc(C)cc(Nc2cc(C)nc3nc(C)nn23)c1,-0.1,-6,1%,-2,-6,-1.0,-8,0,1.9,-2.8
COc1ccc(Cl)cc1NC(=O)CSc1nnc(-c2ccco2)o1,0.8,-6,nt,-1,1,-1.7,1,-2,0.8,-1.6
Cc1cccc(OCC(O)CNC(=O)c2ccccc2C(=O)O)c1 (stereo unspecified),0.7,-15,7%,nt,nt,nt,3,0,3.2,nt
C/C(=N\NC(=O)c1n[nH]c2c1CCC2)c1cccs1,-7.4,0,-6%,6,9,-1.8,-4,12,-0.7,0.5
Cc1n[nH]c(=S)c2nn(-c3ccccc3)c(C)c12,nt,-10,-3%,nt,nt,nt,5,nt,-35,nt
COc1ccccc1-c1cc(C(=O)N/N=C\c2cn(C)nc2C)c2ccccc2n1,-0.3,13,-2%,-3,1,-0.6,0,7,-0.9,3.6
CC(C)CC1NC(=O)c2ccccc2-n2c1nc1cc(F)ccc1c2=O (stereo unspecified),0.6,nt,nt,3,-3,-1.0,nt,0,nt,1.7
COc1ccc(NC(=O)CC2C(=O)N(c3ccc(OC)cc3)C(=S)N2NC(=O)c2cccc(F)c2)cc1 (stereo unspecified),-0.1,-21,14%,nt,nt,nt,-15,-6,3.8,nt
COCC(C)NC(=O)c1cccc([N+](=O)[O-])c1 (stereo unspecified),0.5,7,26%,1,-7,-1.1,1,-3,6.6,2.8
# Later entries:
SMILES,A1 inh,T cruzi repl,Vif A3G,rRNA inh HTS,rRNA inh HTS OD600,rRNA inh HTS RFP,Calb FLC,Beta apoptosis,RanGTP-Impb inh,MLL AF4-AF9 inh
CN1C(=O)C(O)(CC(=O)c2ccc(F)cc2)c2cc(Br)ccc21 (stereo unspecified),0.0,-8,-1%,4,1,5.1,-42,-9,-2.2,-1.1
COc1ccc(S(=O)(=O)N2CCCC(C(=O)NCC3CCCO3)C2)cc1OC (stereo unspecified),0.2,4,nt,2,5,1.1,-2,-8,-0.2,-3.2
Cc1csc2nc(COC(=O)c3ccc(Cl)c([N+](=O)[O-])c3)cc(=O)n12,-0.1,nt,3%,22,16,-0.3,nt,-1,nt,-2.6
Cc1ccc(NC(=O)C2(S(=O)(=O)c3ccc(Cl)cc3)CC2)cc1,0.3,-1,-3%,-3,-2,0.3,1,-3,-2.5,-2.0
CC(/C=C/c1ccccc1)=N\NC(N)=S,-3.4,45,1%,nt,nt,nt,-43,5,0.3,nt
O=C1NC(=O)/C(=C\c2ccc(Sc3ccc(Cl)cc3)o2)N1,0.4,3,21%,nt,nt,nt,9,-13,-0.7,nt
O=C(CCc1nc(-c2ccccc2Cl)no1)Nc1cccnc1,0.7,2,nt,0,-9,-2.0,4,-4,4.5,-1.5
COc1ccccc1NS(=O)(=O)c1ccc(N2CCOCC2)c(NC(=O)c2ccco2)c1,-0.2,29,nt,-14,-2,5.5,-7,6,0.5,1.4
CCN(CC(=O)Nc1cc(Cl)ccc1C)C(=O)c1ccc2c(c1)NC(=O)C(C)S2 (stereo unspecified),1.2,0,nt,-2,6,-2.4,1,0,-3.1,-0.3
CCOC(=O)N1CCN(C(=O)C2CCCN(S(C)(=O)=O)C2)CC1 (stereo unspecified),-0.9,1,5%,12,6,5.3,2,-5,2.3,-2.4
CCSc1nnc(NC(=O)/C=C/c2ccc3c(c2)OCO3)s1,-0.5,37,-4%,nt,nt,nt,-18,-3,-5.0,nt
Cc1ccccc1SCC(=O)NCCCn1ccnc1,-0.1,4,-7%,3,0,-1.7,5,-6,1.3,-0.2
COc1ccc(S(=O)(=O)N(C)CC(=O)NCc2ccccc2)cc1OC,1.8,-2,2%,1,11,-0.7,-2,-10,?,-2.2
O=C(NCc1ccccc1)c1onc(CSc2ccc(F)cc2)c1C(=O)NCc1ccccc1,-0.9,26,nt,nt,nt,nt,-3,nt,-2.8,nt
O=S(=O)(CC(O)COc1ccc(Br)cc1)c1ccccc1 (stereo unspecified),0.1,5,nt,-9,-8,-4.4,-8,-7,0.1,-2.6
CN1C(=O)c2ccc(C(=O)NCc3ccc4c(c3)OCO4)cc2C1=O,-0.1,1,-2%,5,0,-1.6,-4,nt,1.2,-5.2
CN(c1ccc(C(=O)N2CCN(c3ccccc3F)CC2)cc1)S(=O)(=O)c1ccccc1,-0.3,9,nt,-11,-26,-3.9,4,-5,4.6,-2.0
N/C(=N\c1nc(C(F)(F)F)cc(=O)[nH]1)Nc1ccc(Cl)cc1,0.9,-17,3%,nt,nt,nt,-2,0,0.1,nt
COc1cc2nc(SCC(=O)NCCc3ccccc3)n(Cc3ccco3)c(=O)c2cc1OC,0.4,-4,21%&-4%,nt,nt,nt,5,-1,-2.1,nt
COc1ccc(-c2nc(CS(=O)CC(=O)NCCCN3CCCC(C)C3)c(C)o2)cc1OC (stereo unspecified),2.0,-8,nt,-8,-7,-7.3,0,-5,4.9,-5.7
O=C(Cc1ccccc1F)NC1CCCN(Cc2ccc(Cl)cc2)C1 (stereo unspecified),0.0,47,nt,5,7,-1.8,-12,-4,-3.3,-3.8
CCN1CCN(c2ccc(S(=O)(=O)N3CCCCC3)cc2NC(=O)c2cccc(C)c2)CC1,0.8,33,3%,-3,-10,-1.5,-7,-2,-3.3,2.6
CCOC(=O)N1CCN(C(=O)C(=O)NN)CC1,0.2,-9,?,9,14,-1.6,14,-5,-0.1,-1.5
CC(=O)Nc1ccc(S(=O)(=O)Nc2ccc3c(c2)C(=O)OC3)cc1,-0.6,-9,0%,nt,nt,nt,-3,0,nt,nt
Cc1c(C(=O)NCCCN2CCOCC2)oc2c1C1(CCC2)SCCS1,-0.3,9,3%,nt,nt,nt,1,-11,-0.3,nt
# (cont.)
SMILES,A1 inh,T cruzi repl,Vif A3G,rRNA inh HTS,rRNA inh HTS OD600,rRNA inh HTS RFP,Calb FLC,Beta apoptosis,RanGTP-Impb inh,MLL AF4-AF9 inh
O=C(CSc1nc2[nH]ncc2c(=O)[nH]1)Nc1ccccc1C(F)(F)F,0.6,-5,nt,9,0,-1.4,-2,-3,-2.0,-0.3
CC(C)[C@H](NC(=O)[C@H](Cc1ccccc1)n1c(=O)[nH]c2ccccc2c1=O)C(=O)N1CCC[C@@H]1C(=O)O,0.1,-21,nt,nt,nt,nt,4,-1,?,nt
Cc1cc(C)nc(N(C#N)CCOc2ccc(Cl)cc2)n1,0.1,-2,4%,-11,-28,-8.2,6,3,3.7,nt
Cc1ccccc1NS(=O)(=O)c1ccc(C(=O)N2CCN(S(=O)(=O)c3ccccc3)CC2)cc1,0.5,15,-3%,4,1,1.0,nt,9,3.1,-0.2
CC1CCCN(Cc2c(C(=O)N3CCc4ccccc4C3)nc3ccc(Cl)cn23)C1 (stereo unspecified),-0.2,26,-1%,-25*,-16*,8.4*,-9,5,3.2,4.4
CCCCc1nnc(NC(=O)CN2C(=O)c3ccccc3C2=O)s1,0.1,-7,-4%,8,9,0.7,5,-1,-4.4,-1.7
Cc1cc(=O)[nH]c(Cc2ccc(OC(C)C)cc2)n1,1.7,-1,-2%,8,-7,-1.6,?,-3,0.6,-0.3
CSc1ccc(S(=O)(=O)Nc2c(C)cccc2C)cc1,0.8,1,3%,nt,nt,nt,-22,nt,-4.0,nt
Cc1cccc(NC(=S)Nc2ccc(Cl)c(Cl)c2)c1,0.7,4,nt,-62,-79,-21,-4,2,-7.8,1.5
Cc1cc(C)c(S(=O)(=O)c2ccccc2C)c(OCCO)n1,-0.3,1,nt,12,7,0.9,29,-11,0.1,0.1
Cc1onc(-c2c(Cl)cccc2Cl)c1C(=O)N1CCN(c2ccccc2F)CC1,-0.3,5,-6%,-8,-17,0.5,-2,nt,4.1,4.4
O=C(Cn1ccn(-c2ccc(F)c(F)c2)c(=O)c1=O)NCCc1ccccc1,1.2,-8,nt,13,17,-1.0,15,2,?,-1.6
O=C(CNC(=O)c1ccccc1F)NC1=NCCS1,-0.2,5,-1%,10,12,-1.0,4,-17,-1.4,-2.9
O=C(N/N=C/c1ccco1)Nc1ccccc1,-2.5,1,nt,nt,nt,nt,6,-9,-0.8,nt
